TRPML1 inh = blocks the human TRPML1 channel. Q9GZU1. TRPML1-inducible cells, Ca2+ dye fluorescence, FDSS; stronger effect = lower value; inhibition of EC80 agonist-evoked calcium signal. activity change, negative = inhibition, % (test concentration not listed). 390,000 tested, 0.02% active; in the data active means activity change below about -50%; inconclusive means about -30% to -50%; inactive means above about -30%;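 note: stimulus is agonist 54-4 at its EC80 concentration; % is set by controls: 0 for no effect and ±100 for the full control effect; compound concentration not given in the record; the text of the record puts the active cut at -80%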
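Calcium fluorescence in TRPML1-DL cells induced overnight with Tet: a 110 s read after compound pin addition, then a 110 s antagonist read after challenge with 54-4 at 4 uM final (EC80).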
D2 ag = agonists of human D2 dopamine receptor (beta-arrestin); AID 624465; activation, % (test concentration not listed); 360,000 tested, 0.084% active; P14416; DiscoveRx PathHunter D2 beta-arrestin, luminescence, 90 min; 100% = 57 uM dopamine signal; in the data active = activation above about 40%; inconclusive = about 15% to 40%; inactive = below about 15%; note: compound concentration not given in the record; the text of the record calls up to 30% inactive
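Agonist mode: compounds alone added to overnight-plated D2 PathHunter cells for 90 min at 37 C, with 57 uM final dopamine (EC100) defining full response. Beta-arrestin recruitment detected by chemiluminescent reagent, read after 1 h at ambient temperature.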
CtBP-E1A blk = blocks the CtBP interaction with E1A | AlphaScreen GST-E1A/His-CtBP binding, 1536-well; stronger effect = lower value; control for the full effect not named in the record | activity change, % (test concentration not listed) | 340,000 tested, 0.49% active; in the data active means activity change below about -65%; inconclusive means about -30% to -65%; inactive means above about -30%; note: % is set by controls: 0 for no effect and ±100 for the full control effect; compound concentration not given in the record
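AlphaScreen with 125 nM GST-E1A and 125 nM His-CtBP (5X stocks) in Tris pH 8.0, 300 mM NaCl, BSA, Tween 20, TCEP. Compounds preincubated 2 h at 37 deg C, then glutathione donor/nickel acceptor beads added for 1 h at 37 deg C in dark.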
Six1-Eya2 inh = Six1/Eya2 interaction inhibition; 360,000 tested, 0.56% active; activity change, % (concentration not given with the values); AlphaScreen GST-Six1/His-Eya2 binding, biochemical; stronger effect = lower value; control for the full effect not named in the record; Q15475+O00167; in the data active = activity change below about -65%; inconclusive = about -30% to -65%; inactive = above about -30%; note: % is set by controls: 0 for no effect and ±100 for the full control effect
Target sequence (O00167 whole entry, looked up): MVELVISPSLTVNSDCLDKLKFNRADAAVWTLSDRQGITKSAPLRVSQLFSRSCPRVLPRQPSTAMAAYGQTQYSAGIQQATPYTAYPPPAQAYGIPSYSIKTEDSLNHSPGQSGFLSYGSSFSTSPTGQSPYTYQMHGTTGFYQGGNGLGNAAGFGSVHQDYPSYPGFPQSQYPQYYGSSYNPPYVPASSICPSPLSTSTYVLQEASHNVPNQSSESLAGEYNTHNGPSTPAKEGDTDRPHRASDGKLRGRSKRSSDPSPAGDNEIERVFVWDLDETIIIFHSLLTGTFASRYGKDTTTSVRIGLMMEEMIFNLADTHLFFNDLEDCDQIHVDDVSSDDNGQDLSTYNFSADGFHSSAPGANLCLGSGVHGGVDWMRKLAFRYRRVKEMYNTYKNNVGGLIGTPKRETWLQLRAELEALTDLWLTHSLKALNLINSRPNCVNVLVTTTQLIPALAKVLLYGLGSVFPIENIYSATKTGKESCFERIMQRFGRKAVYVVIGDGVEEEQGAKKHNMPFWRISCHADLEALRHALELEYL
Target sequence (Q15475 whole entry, looked up): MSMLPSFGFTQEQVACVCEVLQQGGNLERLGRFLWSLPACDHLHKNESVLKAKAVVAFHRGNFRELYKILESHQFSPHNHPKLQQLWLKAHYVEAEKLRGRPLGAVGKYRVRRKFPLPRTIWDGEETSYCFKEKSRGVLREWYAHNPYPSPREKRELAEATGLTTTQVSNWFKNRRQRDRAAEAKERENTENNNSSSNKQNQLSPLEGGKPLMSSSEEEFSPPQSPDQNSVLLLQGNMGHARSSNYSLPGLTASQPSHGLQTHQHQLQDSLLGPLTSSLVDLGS
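Compounds are tested against tagged Six1 and Eya2 proteins bridged by glutathione donor and nickel acceptor beads; after a one-hour incubation at 37 °C without light, AlphaScreen emission is recorded.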
TRPML1 agonist = human mucolipin-1 channel agonism. Q9GZU1. TRPML1-expressing cells, Ca2+ dye fluorescence, FDSS; host cell line not named in the record; reference of the full effect not given here. activation, % (no concentration beside the values). 410,000 tested, 0.12% active. AID 624414; in the data active = activation above about 50%; inconclusive = about 30% to 50%; inactive = below about 30%; note: 0% is about no effect; the text of the record puts the active cut at 80%
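Kinetic FDSS Ca2+ read in Tet-induced TRPML1-DL cells (ABD Ca8 dye plus quencher, 45-90 min RT loading): baseline, then compound, then 110 s agonist window; EC80 agonist 54-4 at 4uM final added afterwards for a 110 s antagonist window.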
PINK1 expr mod = PINK1 expression modulation. PINK1 immunofluorescence, high-content cytometry, 24 h. Potency, µM (top dose mostly 76.6 µM), for the others: top-dose activation (PINK1 increase), actives largely listed as activators. 410,000 tested, 0.2% active. AID 624263; active = well fitted activation curve with a large enough effect; inconclusive = small, poorly fitted or top-dose-only effect; inactive = flat fitted curve, though single readings scatter; cell line not stated here;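 note: potency is the fitted concentration of half-maximal effect; % of control where 0% means no effect; nearly all actives have a fitted effect of over 65% in size; a mitochondrial uncoupler was the plate control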
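PINK1 protein, normally rapidly degraded, was detected by immunofluorescence after 24 hour compound treatment of a stable cell line. Titration data (5 concentrations) came from laser-scanning cytometry, with CCCP-treated wells as controls.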
Starred values were filed as active, the others as inactive; ? = inconclusive; . = no result given.

#1 COc1cccc(CNC(=O)C(CC(C)C)NC(=O)c2ccccc2C)c1 (stereo not drawn)
#2 COc1ccc(-c2ccc(-c3nnc(-c4cc(OC)ccc4OC)o3)cc2)cc1
#3 CN(c1ccccc1)S(=O)(=O)c1ccc(C(=O)NCc2ccccc2F)cc1
#4 N#CC1=C(N)C2=CCCC[C@H]2[C@H](c2ccc(Br)cc2)C1(C#N)C#N
#5 O=C(Oc1cccc2cccnc12)c1cccc(-n2cnnn2)c1
#6 NCCCNc1ccc([N+](=O)[O-])cc1C(F)(F)F
#7 COc1ccc(C(=O)NCCN2CCOCC2)cc1S(=O)(=O)Nc1ccc(C)cc1
#8 COc1ccccc1N=Nc1c(C)[nH][nH]c1=O

Assay by compound | 1 | 2 | 3 | 4 | 5 | 6 | 7 | 8
TRPML1 inh | -3 | 2 | 34 | 26 | 0 | -1 | 10 | 31
D2 ag | -3.3 | -1.8 | -3.0 | -12 | 0.4 | -2.2 | -9.7 | -0.4
CtBP-E1A blk | 12 | 6 | -2 | 0 | -9 | 0 | -6 | -12
Six1-Eya2 inh | 1 | 4 | 6 | -12 | -13 | -1 | 7 | -12
TRPML1 agonist | -1.7 | 0.4 | 1.9 | 1.1 | 0.0 | 2.5 | 0.2 | -0.8
PINK1 expr mod | 2.3% | 1.0% | 0.7% | 6.0% | 1.3% | 1.7% | -0.5% | 0.3%

#9 COc1c(C)cc(C(=O)C2CCCN(Cc3cccc4nccnc34)C2)cc1C (stereo not drawn)
#10 Cc1ccccc1NC(=O)c1cccc(S(=O)(=O)N2CCOCC2)c1
#11 Cn1c(N)c(C(=O)COC(=O)c2cc(C(F)(F)F)nc3ccccc23)c(=O)n(Cc2ccccc2)c1=O
#12 CCC(C)NS(=O)(=O)c1ccc(-c2csnn2)s1 (stereo not drawn)
#13 COCCNC(=O)C1(C)CCCN(C(=O)c2ccccc2OC)C1 (stereo not drawn)
#14 CC(C)c1ccc(NC(=O)c2cccc(Br)c2)cc1
#15 O=C(CNC(=O)c1ccc(Br)o1)OCC(=O)c1cccc([N+](=O)[O-])c1
#16 COc1ccc(/C=C2\SC(=S)N(CCC(=O)Nc3ccc(C(=O)O)cc3)C2=O)cc1OC

Assay by compound | 9 | 10 | 11 | 12 | 13 | 14 | 15 | 16
TRPML1 inh | 17 | 9 | -5 | 2 | . | -14 | 9 | 16
D2 ag | -3.9 | 2.3 | -2.1 | 0.2 | -4.6 | -0.5 | -23 | -3.8
CtBP-E1A blk | . | 3 | -10 | 12 | 8 | . | 0 | -18
Six1-Eya2 inh | -10 | 2 | -7 | 1 | 0 | 7 | 1 | -16
TRPML1 agonist | 0.2 | -0.4 | 0.3 | -0.6 | -0.1 | -0.6 | 0.9 | -0.1
PINK1 expr mod | 1.9% | -1.5% | 11% | -0.2% | 2.0% | 6.9% | 0.2% | 2.7%

#17 COc1cccc(OC)c1C(=O)N1CCN(c2ccccn2)CC1
#18 CC(=O)c1cccc(OCC(=O)Nc2cc(S(=O)(=O)N3CCOCC3)ccc2N2CCCC2)c1
#19 O=C(COC(=O)c1cccnc1Cl)NCCC1=CCCCC1
#20 COc1ccc(-n2nnnc2SCc2nc(N)nc(N3CCOCC3)n2)cc1
#21 S=C(NCC1CCCO1)Nc1ccc(Cl)cc1Cl (stereo not drawn)
#22 O=C(Cn1cnc([N+](=O)[O-])c1)Nc1ccc(Cl)cc1Cl
#23 O=C(NCc1ccncc1)c1cccc(S(=O)(=O)Nc2ccc(F)cc2)c1
#24 CC(C)(C)OC(=O)NCCC(=O)Oc1ccc2ccc(=O)oc2c1

Assay by compound | 17 | 18 | 19 | 20 | 21 | 22 | 23 | 24
TRPML1 inh | -11 | -21 | -15 | -20 | 8 | 2 | 2 | 0
D2 ag | -1.0 | -5.4 | -3.6 | -3.2 | -2.2 | 12 | 9.5 | -1.6
CtBP-E1A blk | 33 | 1 | 7 | 0 | -10 | 7 | 0 | -1
Six1-Eya2 inh | 20 | 1 | -1 | 7 | -19 | -13 | 6 | -9
TRPML1 agonist | -0.3 | 0.1 | -1.3 | -0.9 | 0.4 | 0.7 | 0.4 | -0.1
PINK1 expr mod | . | 2.1% | -1.0% | 0.6% | 1.2% | 5.0% | 0.7% | -2.7%

#25 CCN(C(=O)COC(=O)c1ccc(F)c(S(=O)(=O)N2CCOCC2)c1)C1CCS(=O)(=O)C1 (stereo not drawn)
#26 COc1ccc(NC(=O)COC(=O)CC2CCCC2)cc1Cl
#27 COc1ccc(NC(=O)c2ccc3[nH]c(C)c(C)c3c2)cc1
#28 C/C1=C\CCC2C(/C=C(\C)CC1)OC(=O)C2CN1CCCCC1 (stereo not drawn)
#29 COC(=O)c1ccccc1NC(=O)CSCC(=O)Nc1ccccc1
#30 NS(=O)(=O)c1ccc(CNC(=O)CNC(=O)c2ccc(Br)o2)cc1
#31 Cn1c(=O)c2c(nc(N3CCOCC3)n2Cc2ccccc2Cl)n(C)c1=O
#32 COc1cccc(/C=C/C(=O)NCCc2ccc3c(c2)OCCO3)c1

Assay by compound | 25 | 26 | 27 | 28 | 29 | 30 | 31 | 32
TRPML1 inh | -27 | 6 | -5 | -16 | -7 | 9 | 41 | 0
D2 ag | -11 | -4.4 | -1.4 | -5.5 | 0.2 | -8.4 | . | -1.6
CtBP-E1A blk | 5 | 11 | -11 | -25 | 3 | 0 | . | 15
Six1-Eya2 inh | -3 | 1 | -1 | 10 | 0 | -16 | . | 5
TRPML1 agonist | 0.8 | 0.4 | 1.0 | 0.0 | 1.6 | -1.1 | -0.2 | 0.3
PINK1 expr mod | 0.9% | -3.4% | -1.3% | -0.1% | -3.3% | 1.7% | -0.1% | -1.8%

#33 COc1cccc(C2c3c(oc4ccccc4c3=O)C(=O)N2c2ccccn2)c1 (stereo not drawn)
#34 CCOc1ccc(C(=O)CCC(=O)N2CCC(C(=O)OC)CC2)cc1
#35 Cc1ccccc1NC(=O)NCCc1ccc(Cl)cc1
#36 Fc1ccc(-n2nnc(-c3cnc4ccccc4c3)n2)cc1
#37 CC(C)(C)OC(=O)N1CCC[C@H]1c1nnc(SCc2ccc(Cl)cc2Cl)o1
#38 Cc1cc(=O)[nH]c(N/N=C/C(C)c2ccccc2)n1 (stereo not drawn)
#39 C[C@H](CO)N1C[C@H](C)[C@@H](CN(C)C(=O)Nc2ccc3c(c2)OCO3)Oc2ccc(NC(=O)NC3CCCCC3)cc2C1=O
#40 Cc1nc2ccc(S(=O)(=O)NCC(=O)NCCc3ccc(Cl)cc3)cc2s1

Assay by compound | 33 | 34 | 35 | 36 | 37 | 38 | 39 | 40
TRPML1 inh | -5 | -15 | -18 | -10 | -4 | 17 | -13 | 16
D2 ag | -2.5 | 5.4 | -2.4 | -1.7 | -2.0 | 1.0 | -0.9 | -4.7
CtBP-E1A blk | -18 | . | 10 | 3 | -1 | 4 | 1 | 2
Six1-Eya2 inh | 3 | 2 | 6 | 2 | 13 | 1 | 2 | -1
TRPML1 agonist | 1.5 | -0.4 | 0.2 | -0.5 | 2.9 | 0.4 | -0.8 | -0.7
PINK1 expr mod | -4.2% | -0.7% | 6.8% | 2.2% | 2.1% | 0.8% | 2.1% | 0.3%

Reprinted from the part before: three compounds, then new ones.
#38 Cc1cc(=O)[nH]c(N/N=C/C(C)c2ccccc2)n1 (stereo not drawn)
#39 C[C@H](CO)N1C[C@H](C)[C@@H](CN(C)C(=O)Nc2ccc3c(c2)OCO3)Oc2ccc(NC(=O)NC3CCCCC3)cc2C1=O
#40 Cc1nc2ccc(S(=O)(=O)NCC(=O)NCCc3ccc(Cl)cc3)cc2s1
#41 Cn1ccnc1SCC(=O)Nc1sccc1C#N
#42 COC(=O)C1=C(CS(=O)(=O)c2ccccc2)NC(=O)NC1c1ccc(O)cc1 (stereo not drawn)
#43 CCc1nnc(NC(=O)CN2C(=O)NC3(CCCC3)C2=O)s1
#44 COc1cc(NC(=O)c2ccco2)c(OC)cc1NC(=O)Nc1cccc(Cl)c1
#45 CCC/C(=N\NC(=O)c1ccco1)c1ccc(Cl)s1
#46 CN1CCN(S(=O)(=O)c2ccc(NC(=O)COc3ccccc3Cl)cc2)CC1
#47 CCCCCCN1C[C@@H](n2cc(COC(=O)c3ccccc3)nn2)[C@H](O)C[C@@H]1c1ccc(Cl)cc1
#48 CCOC(=O)N1CCC(N2CCN(S(=O)(=O)c3ccc(NC(C)=O)cc3)CC2)CC1

Assay by compound | 38 | 39 | 40 | 41 | 42 | 43 | 44 | 45 | 46 | 47 | 48
TRPML1 inh | 17 | -13 | 16 | -15 | -14 | 1 | 0 | 24 | 43 | 12 | 2
D2 ag | 1.0 | -0.9 | -4.7 | -1.3 | 5.9 | -5.4 | 0.0 | 0.8 | -0.6 | -7.3 | -0.1
CtBP-E1A blk | 4 | 1 | 2 | -12 | -16 | -1 | -15 | 0 | 18 | 1 | 8
Six1-Eya2 inh | 1 | 2 | -1 | -11 | 7 | -1 | -18 | -3 | 12 | 3 | 0
TRPML1 agonist | 0.4 | -0.8 | -0.7 | -0.1 | 0.2 | 0.8 | 0.8 | 1.4 | -0.5 | 0.7 | -0.5
PINK1 expr mod | 0.8% | 2.1% | 0.3% | 2.0% | -0.7% | 1.8% | ? | 5.9% | 7.1% | -0.7% | .

A draw from above in order of SMILES length, largest number first.
#46 CN1CCN(S(=O)(=O)c2ccc(NC(=O)COc3ccccc3Cl)cc2)CC1
#43 CCc1nnc(NC(=O)CN2C(=O)NC3(CCCC3)C2=O)s1
#41 Cn1ccnc1SCC(=O)Nc1sccc1C#N

Assay by compound | 46 | 43 | 41
TRPML1 inh | 43 | 1 | -15
D2 ag | -0.6 | -5.4 | -1.3
CtBP-E1A blk | 18 | -1 | -12
Six1-Eya2 inh | 12 | -1 | -11
TRPML1 agonist | -0.5 | 0.8 | -0.1
PINK1 expr mod | 7.1% | 1.8% | 2.0%

Going on with the list.
#49 CCCC1NC(=O)c2cccnc2-n2c1nc1ccc(C)cc1c2=O (stereo not drawn)
#50 COC(=O)C1=CN(c2ccc(OC)cc2)C=C(C(=O)OC)C1c1ccc(C)c([N+](=O)[O-])c1
#51 CC(=O)c1c(C)n(-c2ccc(C)cc2C)c2ccc(O)cc12
#52 CCCCOC(=O)c1ccc(NC(=O)c2c(N)n(C)c(=O)[nH]c2=O)cc1
#53 CCOC(=O)CNC(=O)c1cc2c(=O)n(CC)c3ccccc3c2s1
#54 CCOC(=O)N1CCc2c(sc3c2c(=O)n(-c2ccc(Cl)cc2)c(=O)n3Cc2cccc(C)c2)C1
#55 CCOC(=O)Cn1c(=N)n(Cc2ccccc2)c2ccccc21
#56 Cc1cccc(N=C2NN=C(c3c(C)[nH]c4ccccc34)CS2)c1
#57 CCOC(=O)c1ccc(S(=O)(=O)N2CCN(C3CCCC3)CC2)cc1

Assay by compound | 49 | 50 | 51 | 52 | 53 | 54 | 55 | 56 | 57
TRPML1 inh | 1 | 24 | . | 10 | -3 | 4 | -11 | 20 | -5
D2 ag | -2.1 | 0.2 | 2.2 | -0.6 | . | . | -1.3 | 3.8 | -3.5
CtBP-E1A blk | -9 | -24 | -13 | -1 | . | . | 0 | -2 | 7
Six1-Eya2 inh | 0 | -16 | -3 | 4 | . | . | 12 | ? | 13
TRPML1 agonist | -0.3 | 2.2 | . | -0.3 | -1.1 | 1.3 | 1.3 | -0.2 | -0.7
PINK1 expr mod | -0.1% | 3.9% | 3.4% | 0.2% | 0.5% | -0.5% | 1.2% | ? | 0.4%

Compound activity as filed in PubChem.
